Cruzain noTriton: cruzain (T. cruzi) inhibition without detergent. purified cruzain, Z-FR-AMC fluorescence, no detergent. Potency, µM, for the others: max response, negative = inhibition, hits mostly inhibitors. actives 2.3% (n = 200,000). AID 1476;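 note: plate controls were enzyme without inhibitor for no effect and buffer without enzyme for full effect; nearly all actives have a fitted effect of over 40% in size; top concentration of the series not given in the record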
Target sequence (P25779 123-467 limits assumed): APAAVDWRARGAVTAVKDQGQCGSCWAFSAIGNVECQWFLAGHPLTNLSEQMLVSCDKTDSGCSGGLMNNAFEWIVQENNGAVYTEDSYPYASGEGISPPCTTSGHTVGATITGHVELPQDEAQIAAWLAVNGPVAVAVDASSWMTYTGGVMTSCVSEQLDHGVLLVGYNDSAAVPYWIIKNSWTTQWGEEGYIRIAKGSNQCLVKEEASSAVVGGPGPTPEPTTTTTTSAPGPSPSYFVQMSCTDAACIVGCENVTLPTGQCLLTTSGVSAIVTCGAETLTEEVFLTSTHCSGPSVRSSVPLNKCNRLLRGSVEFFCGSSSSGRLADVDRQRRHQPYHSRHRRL
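Purified cruzain at 1.5 nM, pre-incubated 15 min with compound at room temperature in 100 mM sodium acetate pH 5.5, 5 mM DTT, 0.00005% Triton X-100. Reaction started with 2 uM Z-FR-AMC; AMC fluorescence increase over 60 s gives rate.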
LASV entry inh: Lassa virus entry inhibition. Lassa virus pseudotype entry inhibition, cell reporter; control for the full effect not named in the record. Potency, µM (top dose mostly 37.9 µM), for inactives: at the highest dose activity change, negative = inhibition, hits mostly inhibitors. actives 1.2% (n = 300,000). AID 540256; active means well fitted inhibition curve with a large enough effect; inconclusive means small, poorly fitted or top-dose-only effect, or effect the other way; inactive means flat fitted curve, though single readings scatter; tested in HEK293 cells; note: % is set by controls: 0 for no effect and ±100 for the full control effect; nearly all actives have a fitted effect of over 50% in size; luciferase read-out
RE007 growth inh: less growth of the S. pombe RE007 Vpr strain. S. pombe RE007 Vpr strain, BacTiter-Glo ATP luminescence, 24 h; control for the full effect not named in the record. Potency, µM (doses to about 92.2 µM), without a hit: top-dose activity change, negative = less growth. actives 0.21% (n = 360,000). AID 651644; active = well fitted falling curve with a large enough effect; inconclusive = small, poorly fitted or top-dose-only effect; inactive = no such curve, though single readings can be large or run the other way;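 note: % is set by controls: 0 for no effect and ±100 for the full control effect; nearly all actives have a fitted effect of over 50% in size; the assay follows cell death caused by Vpr and the record does not say whether a fall means rescue or toxicity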
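Fission yeast strain RE007, carrying one chromosomally integrated HIV-1 vpr copy, was seeded at OD 0.01 in PMG+AL medium with 23 nL pinned compound. After 24 h at 30 °C and 99% humidity, viability was read by BacTiter-Glo luminescence.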
NS1 inh: influenza NS1 inhibition | S. cerevisiae slowed by influenza A NS1, growth recovery by OD600 | Potency, µM (doses to about 46.1 µM), without a hit: at the highest dose activity, positive = more growth | actives 0.4% (n = 270,000); active means well fitted rising curve with a large enough effect; inconclusive means small, poorly fitted or top-dose-only effect; inactive means no such curve, though single readings can be large or run the other way; note: nearly all actives have a fitted effect of over 50% in size
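In this qHTS, NS1 from influenza A is expressed in budding yeast, where it slows growth. Cells are switched from glucose to 2% galactose medium (pH 6.0, -URA), treated with compound, and growth recovery is read at OD600.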
Cruzain inh Det: blocks cruzain activity in presence of Triton detergent; P25779; purified cruzain, Z-FR-AMC fluorescence, 0.01% Triton; actives 0.43% (n = 200,000); Potency, µM, for inactives: max response, negative = inhibition, hits mostly inhibitors;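 note: plate controls were neutral wells for no effect and buffer without enzyme for full effect; nearly all actives have a fitted effect of over 40% in size; top concentration of the series not given in the record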
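Cysteine protease activity tested under reducing, mildly acidic conditions (100 mM sodium acetate pH 5.5, 5 mM DTT) plus 0.01% Triton X-100. Cruzain 1.5 nM; substrate Z-FR-AMC 2 uM; 15 min compound preincubation at room temperature.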
StopGo reporter: lowers the luciferase signal of an FMDV 2A StopGo reporter. human cells with a luciferase reporter of 2A StopGo recoding; control for the full effect not named in the record. Potency, µM (titrated, usually from 57.9 µM), for inactives: at the highest dose signal change, negative = less light. actives 1.2% (n = 410,000); active = well fitted falling curve with a large enough effect; inconclusive = small, poorly fitted or top-dose-only effect; inactive = no such curve, though single readings can be large or run the other way; tested in HEK293T cells; note: % is set by controls: 0 for no effect and ±100 for the full control effect; nearly all actives have a fitted effect of over 45% in size; luciferase light after 4 h
MARV entry inh: Marburg virus entry inhibition; Potency, µM (highest dose often 37.8 µM), without a hit: at the top dose activity change, negative = inhibition, usual class: inhibitors; Marburg virus pseudotyped entry inhibition, cell reporter; control for the full effect not named in the record; about a third of the inactives were read at about 46 µM; actives 1.8% (n = 300,000); active = well fitted inhibition curve with a large enough effect; inconclusive = small, poorly fitted or top-dose-only effect, or effect the other way; inactive = flat fitted curve, though single readings scatter; tested in HEK293 cells; about a fifth of its hits are not listed in these tables; note: % is set by controls: 0 for no effect and ±100 for the full control effect; luciferase read-out
SARS PLP yeast: blocks SARS-CoV papain-like protease in a yeast assay; actives 0.19% (n = 330,000); AID 485353; Potency, µM (titrated, usually from 32.9 µM), for the others: at the highest dose activity, positive = growth rescue; S. cerevisiae expressing SARS-CoV PLpro, growth rescue; control for the full effect not named in the record; active means well fitted rising curve with a large enough effect; inconclusive means small, poorly fitted or top-dose-only effect; inactive means no such curve, though single readings can be large or run the other way; note: 0% is about no effect; nearly all actives have a fitted effect of over 55% in size; growth read by luminescence after 48 h
Starred values were filed as active, the others as inactive; u = inconclusive; x = no result given; & = joins results of further samples; [ ] = remark or other dose. Unless noted, calls come from the whole dose curve; as a rule, active = well fitted curve in the direction sought with a large enough effect; inconclusive = small, poorly fitted or top-dose-only effect, or another doubt; inactive = no such curve, though single readings can be large; an effect the other way counts as inactive or inconclusive. Potency is the fitted concentration of half-maximal effect. An unsorted share of the library. Share with any hit: about 4.5%.

SMILES	Cruzain noTriton	LASV entry inh	RE007 growth inh	NS1 inh	Cruzain inh Det	StopGo reporter	MARV entry inh	SARS PLP yeast
CCCN1CC=C2C(C#N)=C(N)C(C#N)(C#N)C(c3cc(OC)ccc3OC)C2C1 (stereo not drawn)	4.9%	-0.2%	3.8%	1.4%	-5.7%	-18.2%	-8.6%	1.6%
COc1ccc(NC(=O)Cn2c(=O)n(Cc3nc(-c4ccccc4)no3)c(=O)c3cc4c(cc32)OCO4)c(OC)c1	16.4%	u	x	x	-1.9%	-9.7%	x	x
CC(=O)c1ccc(N(CC(=O)NC2CCCC2)C(=O)c2csnn2)cc1	x	0.0%[46.1 µM]	1.5%	14.6%	x	9.2%	u	0.8%
Cc1ccc(CN2C(=O)CCC2C(=O)NCCCN2CCOCC2)cc1 (stereo not drawn)	0.6%	12.9%	-17.2%	3.1%	3.6%	-6.0%	17.0%	-13.5%
CC(=O)C12CCCCC1CC1[C@@H]3CC(C)C4=CC(=O)CC[C@]4(C)C3CC[C@@]12C (stereo partly drawn)	x	27.8%[46.1 µM]	14.8%	0.7%	x	u	14.1%[46.1 µM]	0.6%
Oc1c(C(Nc2ccccn2)c2ccccc2F)ccc2cccnc12 (stereo not drawn)	-17.3%	u	x	x	u	7.0%	x	x
Cc1ccc2[nH]c(C(=O)N3CCOCC3)cc2c1	x	21.0%	7.4%	8.3%	x	64.0%[activator]	u	-5.2%
CC(C)(C)[C@H]1C=C(C(=O)NC2CC2)O[C@@H](OCc2ccc(CO)cc2)C1	x	x	-0.3%	-2.4%	x	-11.3%	x	-2.2%
CCCSc1nc2c(cnn2-c2ccc(F)cc2)c(=O)[nH]1	0.4%	x	5.7%	-3.3%	-5.5%	-12.8%	x	3.8%
Cc1ccc(NS(=O)(=O)c2ccc3oc(=O)c4ncn(C)c4c3c2)cc1C	4.6%	-3.4%[46.1 µM]	x	x	-2.2%	-7.0%	u	x
c1ccc(N/N=C(\Cc2nc3ccccc3[nH]2)c2ccccc2)cc1	-27.5%	11.8%	40.4%	3.3%	-16.0%	34.1%[activator]	u	-50.1%
CC1CC(Nc2ccccc2)c2ccccc2N1C(=O)c1ccco1 (stereo not drawn)	x	-17.6%	-2.5%	-3.8%	x	-13.0%	u	4.9%
O=C(CN1CCOCC1)Nc1cc(Cl)ccc1Cl	-7.1%	-17.1%	-12.3%	-3.5%	1.2%	-3.4%	-5.8%	4.1%
Cc1cccc(-n2c(CNC(=O)c3ccc(S(=O)(=O)N4CCCC4)cc3)n[nH]c2=S)c1	18.7%	4.7%	2.3%	3.9%	-1.1%	-1.3%	2.6%	13.2%
COc1ccc(-n2ncc3c(NCC4CCCO4)ncnc32)cc1 (stereo not drawn)	-10.2%	u	3.0%	-8.3%	5.2%	-5.4%	u	1.7%
CC(C)c1ccc(S(=O)(=O)NC2CCS(=O)(=O)C2)cc1 (stereo not drawn)	x	u	1.3%	x	x	13.8%	u	1.1%
CCOc1ccccc1N1CC(C(=O)Nc2ccccc2N2CCOCC2)CC1=O (stereo not drawn)	25.9%	28.4%	-5.0%	4.5%	-3.4%	0.0%	-15.4%	1.3%
Cn1c(Cc2ccccc2)nnc1SCC(=O)NC1CC1	x	-51.9%[46.1 µM]	-5.5%	-15.8%	x	-26.0%	x	0.2%
COc1c2c(cc3ccc(=O)oc13)CCO2	x	x	1.0%	-17.4%	x	0.5%	x	1.7%
Cc1cc(C)nc(SCC(=O)N2CCC(C(N)=O)CC2)n1	-8.1%	-2.6%	2.0%	7.6%	4.3%	x	21.7%	2.0%
CCC(=O)Oc1ccc(C(=O)Nc2ccc([N+](=O)[O-])cc2)cc1	x	-13.8%[46.1 µM]	-3.7%	3.0%	x	38.4%[activator]	u	-1.8%
CNC(=O)c1[nH]cnc1C(=O)Nc1ccc(Cl)cc1	x	x	-0.8%	1.6%	x	24.2%	x	-1.5%
CCn1c(SCC(=O)N2CCCCC2)nc2c(c1=O)SC(C)C2 (stereo not drawn)	5.2%	x	-1.6%	-5.4%	-3.3%	-24.0%	x	20.8%
CCn1cc(C(=O)Nn2cnnc2)c(=O)c2ccc(C)nc21	-0.8%	4.8%	-15.1%	-6.7%	4.2%	-2.3%	16.4%[46.1 µM]	0.5%
COc1cc(Cl)c(C)cc1NC(=O)CSc1nc2c(c(=O)[nH]1)CCC2	4.1%	-27.3%[46.1 µM]	x	x	-7.8%	-17.5%	-7.5%[46.1 µM]	x
CCOC(=O)C(CC)Sc1ncnc2c1c(-c1ccccc1)cn2-c1ccc(OC)cc1 (stereo not drawn)	-2.5%	-3.1%[46.1 µM]	x	x	-2.3%	-17.5%	u	x
COc1cccc(C(=O)COc2ccc3c(C)c(Cc4ccccc4)c(=O)oc3c2)c1	u	-4.9%	5.7%	11.0%	-5.1%	-7.4%	u	u
O=C(Cn1c(=O)n(-c2ccccc2Cl)c(=O)c2sc3ccccc3c21)NC1CCCCC1	15.1%	3.8%[46.1 µM]	x	x	-1.4%	-5.7%	-2.0%[46.1 µM]	x
Cc1noc(C)c1CSc1nnnn1-c1ccc(Cl)cc1	-1.1%	u	u	-7.0%	-9.1%	u	-25.7%	1.5%
NC(=O)N/N=C/c1cc(Br)ccc1OCC(=O)NCc1ccccc1	-15.9%	-0.4%	0.6%	4.2%	-6.7%	-22.6%	u	-5.2%
COc1ccc(-n2nc(C(=O)NCCCN3CCCC3=O)c3c4ccccc4n(C)c3c2=O)cc1Cl	x	x	-9.4%	3.1%	x	-23.4%	x	-1.9%
C=CC[n+]1c(-c2ccc(C)cc2)csc1Nc1ccc(NC(C)=O)cc1	x	2.31µM*	11.2%	-11.3%	x	u	6.51µM*	-7.6%
Cc1cc(Br)cn2ccnc12	4.9%	23.5%	-0.5%	2.3%	2.9%	6.1%	3.7%	5.1%
OCCC#Cc1ccc(CN2CCN(CCc3ccccc3)C(CCO)C2)cc1 (stereo not drawn)	x	u	-13.4%	17.8%	x	-3.4%	4.5%[46.1 µM]	-2.1%
CCOc1cc(C)ccc1OCc1nnc(SCC(=O)c2cccc([N+](=O)[O-])c2)n1CC	5.6%	5.5%	2.0%	-8.5%	-7.1%	x	u	-1.7%
Cc1ccc(C(=O)NCCSc2snnc2C)cc1	-5.6%	-1.5%	-6.9%	2.1%	0.1%	27.2%	u	14.9%
O=C(Nc1ccccc1C(F)(F)F)c1cc2ncc(CCCl)cn2n1	16.1%	u	-4.3%	-7.3%	-5.7%	16.4%	-3.4%	3.7%
O=C(N/N=C/c1cccnc1)c1ccccc1NS(=O)(=O)c1cccs1	x	12.1%	21.1%	x	x	4.1%	1.6%[46.1 µM]	8.1%
CC(=O)c1sc(N/N=C2\CC3CCC2(C)C3(C)C)nc1C (stereo not drawn)	x	3.3%	20.0%	6.0%	x	-17.8%	-3.9%[46.1 µM]	-0.8%
CN(c1ccccc1)c1nc(N)c([N+](=O)[O-])c(Nc2ccccc2F)n1	x	x	-10.8%	6.6%	x	-19.8%	x	-0.4%
O=C(CSc1nnc(-c2ccco2)c(-c2ccco2)n1)c1ccccc1	x	15.8%	-14.8%	3.3%	x	-19.5%	0.5%[46.1 µM]	0.4%
O=S(=O)(Nn1cnnc1)c1ccccc1	-0.3%	5.0%	-6.8%	6.8%	3.5%	-17.7%	4.5%	-6.0%
COc1ccccc1N1CCN(CC(O)COc2ccc3c(c2)OCO3)CC1 (stereo not drawn)	x	-5.1%	-12.0%	x	x	-14.8%	0.9%	-2.7%
Cc1cc(=O)oc2c(CN3CCN(C)CC3)c(O)c(Cl)cc12	u	6.2%	1.1%	27.1%	-22.4%	20.9%	15.7%	u
Cc1ccc(NC(=O)c2ccc(NS(=O)(=O)/C=C/c3ccccc3)cc2)nc1	x	x	5.0%	-7.1%	x	21.9%	x	-0.9%
Cc1ccc(S(=O)(=O)N2CCC(C(=O)OCCOc3ccccc3)CC2)cc1C	x	4.8%	-9.9%	x	x	-21.9%	22.8%	-5.2%
NC(=O)CC(NC(=O)Cc1cccc2ccccc12)c1ccc(NCCc2cccc(F)c2)c([N+](=O)[O-])c1 (stereo not drawn)	x	x	-4.5%	-2.0%	x	u	x	-0.8%
O=C(NCCCCc1ccccc1)c1cccc(Br)c1	x	0.0%	79.3%	-27.6%	x	18.0%	0.2%	-2.5%
CC(=O)c1c(C)[nH]c(C(=O)OCC(=O)N2CCc3ccccc32)c1C	u	u	1.0%	4.47µM*	2.3%	46.3%[activator]	u	2.3%
Nc1nonc1-n1nnc(C(=O)N/N=C/c2ccccn2)c1-c1ccccc1	x	12.2%[46.1 µM]	10.9%	6.0%	x	-14.1%	u	0.1%
COCCNC(=O)CCCN1C(=O)CCn2nc(-c3cccn3C)cc21	-4.4%	3.0%[46.1 µM]	x	x	1.7%	0.1%	x	x
COCCOC(=O)c1c(C)oc2ccc(NS(=O)(=O)c3ccc(F)cc3)cc12	x	x	-8.2%	-39.5%&4.1%	x	5.3%	4.4%	0.9%
COc1ccc(C(=O)COC(=O)c2cccc(-n3cnnn3)c2)c(OC)c1	x	u	12.2%	x	x	-7.2%	23.9%[46.1 µM]	-1.7%
CCN(CCCNC(=O)CCNC(=O)Cn1cnc2ccccc2c1=O)c1ccccc1	-7.1%	13.5%	9.6%	-0.1%	1.9%	-6.0%	u	0.0%
N#Cc1cc([N+](=O)[O-])ccc1NC(=O)CSc1n[nH]c(=O)[nH]c1=O	x	-0.5%[46.1 µM]	0.0%	x	x	-0.9%	-1.7%[46.1 µM]	-4.5%
CCCC(CCC)n1[nH]c(=O)c2c(C)cc(C)nc21	4.8%	18.7%	-5.9%	-4.0%	-0.7%	-0.4%	3.3%	5.0%

Screening data from PubChem BioAssay.
